High-throughput results as filed in PubChem BioAssay.
UUG fidelity: modulators of start codon recognition fidelity in yeast; AID 602363; activity score, % at 18.7 µM; 350,000 tested, 0.13% active; S. cerevisiae UUG-firefly luciferase reporter, luminescence/redox ratio;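 active = replicate mean at a twofold rise or more, about +100% in these data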;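 also: firefly luciferase made from a UUG start codon reports start codon fidelity; reporter light over untreated wells divided by growth signal over untreated wells; some hits fall short of that in this replicate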
MT1-MMP act inh: blocks activation of human MT1-MMP. P50281. HT1080 RFP-PRO-GFP cells, GFP/RFP ratio fluorescence, overnight; percent of plate control window, DMSO zero. GFP/RFP ratio change, % at 20 µM. 360,000 tested, 0.061% active;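 active = GFP/RFP ratio change of at least 30% with cell ATP level not reduced by more than half and red fluorescence within 50% of control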; also: strong numbers were not always called active
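Test system: HT1080 cells expressing an RFP-PRO-GFP fluorescent reporter construct / Compound dosing: single-point 20 µM compound, 1% DMSO / Schedule: cells overnight before dosing, compound overnight, 37 °C, 5% CO2 / Evaluation: GFP/RFP fluorescence ratio / Control set: DMSO and RFP-L50D-GFP cell wells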
MT1-MMP act inh RFP: further read-out of MT1-MMP act inh, marked with its call; RFP signal change, %; measured here: RFP expression control read;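 0 = vehicle wells; hits needed this value within 50% of zero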
* marks the source's active call; other numbers are inactive results; & = joins results of further samples.

The first six records, to show the layout:
UUG fidelity,MT1-MMP act inh,structure,MT1-MMP act inh RFP
-8,2,COCCNC(=O)C1(C)CCCN(C(=O)c2ccc(C(=O)OC)cc2)C1 (stereo not given),3
-24,2,CCN(CC(=O)Nc1c(F)cccc1F)C(=O)C1CCN(C(=O)Nc2ccccc2)CC1,3
-9,0,O=C(O)c1ccc(CNC(=O)c2ccc(S(=O)(=O)N3CCCCC3)cc2)cc1,1
-22,0,CN(CC(=O)Nc1ccccc1Br)CC(=O)Nc1ccccc1-c1ccccc1,-5
-16,-1,O=S(=O)(c1ccc(SCCOc2ccc(Br)cc2)nc1)N1CCCC1,-18
-18,-2,CN(Cc1cccnc1)C(=O)c1ccc(Cl)c(NS(=O)(=O)c2ccc(F)cc2)c1,1

The whole of this part, from the first entry:
UUG fidelity,MT1-MMP act inh,structure,MT1-MMP act inh RFP
-8,2,COCCNC(=O)C1(C)CCCN(C(=O)c2ccc(C(=O)OC)cc2)C1 (stereo not given),3
-24,2,CCN(CC(=O)Nc1c(F)cccc1F)C(=O)C1CCN(C(=O)Nc2ccccc2)CC1,3
-9,0,O=C(O)c1ccc(CNC(=O)c2ccc(S(=O)(=O)N3CCCCC3)cc2)cc1,1
-22,0,CN(CC(=O)Nc1ccccc1Br)CC(=O)Nc1ccccc1-c1ccccc1,-5
-16,-1,O=S(=O)(c1ccc(SCCOc2ccc(Br)cc2)nc1)N1CCCC1,-18
-18,-2,CN(Cc1cccnc1)C(=O)c1ccc(Cl)c(NS(=O)(=O)c2ccc(F)cc2)c1,1
-19,-5,CCN1CCN(S(=O)(=O)c2ccc(Cl)c(C(=O)N(CC(C)C)C3CCS(=O)(=O)C3)c2)CC1 (stereo not given),1
-19,1,COc1c(C)cc(C(O)c2ncc(-c3cccc(F)c3)[nH]2)cc1C (stereo not given),-4
-15,0,CC(C)(C)c1ccc(S(=O)(=O)N2CCN(C(=O)C3=COCCO3)CC2)cc1,-6
-32,4,CC(C)=C1CCC(C)CC1=NNC(N)=S (stereo not given),-3

Five compounds drawn at random from the list so far:
UUG fidelity,MT1-MMP act inh,structure,MT1-MMP act inh RFP
-19,-5,CCN1CCN(S(=O)(=O)c2ccc(Cl)c(C(=O)N(CC(C)C)C3CCS(=O)(=O)C3)c2)CC1 (stereo not given),1
-8,2,COCCNC(=O)C1(C)CCCN(C(=O)c2ccc(C(=O)OC)cc2)C1 (stereo not given),3
-22,0,CN(CC(=O)Nc1ccccc1Br)CC(=O)Nc1ccccc1-c1ccccc1,-5
-16,-1,O=S(=O)(c1ccc(SCCOc2ccc(Br)cc2)nc1)N1CCCC1,-18
-18,-2,CN(Cc1cccnc1)C(=O)c1ccc(Cl)c(NS(=O)(=O)c2ccc(F)cc2)c1,1

Other entries:
UUG fidelity,MT1-MMP act inh,structure,MT1-MMP act inh RFP
-7,0,CCCOc1ccc(F)cc1-c1cc(C(=O)NCc2cc(C(F)(F)F)cc(C(F)(F)F)c2)[nH]n1,-1
-11,4,CCOC(=O)c1ccc(NC(=O)[C@@H]2CCC(=O)N2C2OC(=O)c3c2ccc(OC)c3OC)cc1 (stereo not given in full),4
4,3,CC(C)(C)S(=O)N1Cc2cc(C(=O)NCc3ccc(Oc4ccccc4)cc3)nc(-c3cccc(-c4cc5ccccc5o4)c3)c2[C@H]1CCO (stereo not given in full),3
-4,0,CC(=O)Nc1ccc(NC(=O)c2cc(S(=O)(=O)N3CCCCC3)ccc2N2CCOCC2)cc1,3
16,-1,COc1ccc(C(CNC(=O)CCNS(=O)(=O)c2ccc(Br)cc2)N2CCOCC2)cc1 (stereo not given),4
-10,-10,CCCCN1CC(=O)N2[C@@H]3c4cc(Br)ccc4OC[C@@H]3[C@H](C(=O)OCC)[C@]2(C)C1=O,-1
0,-1,Cn1nc(C2CC2)cc1NC(=O)C1(C)CCN1C(=O)CC(c1ccccc1)c1ccccc1 (stereo not given),-2
-11,-1,COc1cc(C(=O)CCc2ccc3c(c2)OCO3)cc(OC)c1OC,-2
-1,0,CCN(C(=O)CSc1n[nH]c(-c2ccccc2)n1)c1c(N)n(Cc2ccccc2)c(=O)[nH]c1=O,3
-3,4,Cc1ccc(NC(=O)CCNC(=O)c2ccc([N+](=O)[O-])cc2)cc1S(=O)(=O)N1CCOCC1,-2
2,7,CCOC(=O)c1c(C)[nH]c(C)c1C(=O)CN1C(=O)NC2(CCCCCC2)C1=O,7
-14,-2,N#CC(c1cccc([N+](=O)[O-])c1)C(CC(=O)c1ccccc1)c1ccccc1 (stereo not given),-7
-16,-1,Cc1cc(Nc2ccc(F)cc2)c2ccccc2n1,-1
-12,1,Cc1c(C(=O)O)sc(S(=O)(=O)N2CCN(C(=O)Cc3ccc(Cl)cc3)CC2)c1C(=O)O,1
-14,1,CC(=NNc1ccc([N+](=O)[O-])cn1)c1ccc(N)cc1,-1
-11,3,Cc1cccc(C(=O)NCC(=O)N2CCC2)c1,1
-7,-1,COc1ccc(C(=O)OCC(=O)NC(=O)NCc2ccccc2)cc1[N+](=O)[O-],2
-6&2,4,C[C@@H]1CN([C@H](C)CO)C(=O)CCCn2cc(nn2)CO[C@H]1CN(C)C(=O)Cc1ccccc1,4
-14&4,3,C[C@@H]1CN([C@H](C)CO)C(=O)CCCn2nncc2CO[C@@H]1CN(C)C(=O)Nc1ccnc(N2CCOCC2)c1,6
-6,0,Nc1c(N(Cc2ccccc2)C(=O)CCc2ccccc2)c(=O)[nH]c(=O)n1Cc1ccccc1,-3
-24,3,CC1=C(C(=O)N2CCOCC2)CC(CC(=O)NCCCN(C)C)C(=O)N1Cc1ccc(F)cc1 (stereo not given),1
-13,3,O=C(COC(=O)c1ccc(O)cc1O)NC12CC3CC(CC(C3)C1)C2,-11
-14,1,COc1ccc(C(=O)N(C)Cc2nc3ccccc3c(=O)[nH]2)cc1S(=O)(=O)N1CCCC1,1
-16,1,CC(c1nc2ccccc2[nH]1)N(C(=O)C1=NNC(=O)CC1)c1ccccc1 (stereo not given),6
-10,0,Cc1ccc(NC(=O)COC(=O)c2ccc3c(c2)OCCO3)cc1,2
-12,0,COc1ccc(-c2nn(-c3ccccc3)cc2CNC[C@H]2O[C@@H](n3cnc4c(=O)[nH]c(N)nc43)[C@H](O)[C@@H]2O)cc1,5
-18,-1,CCCCCCNC(=O)O[C@H]1C[C@H](C(=O)OC)[C@H](C(=O)OC)C2CN(S(=O)(=O)c3ccc(C)cc3)C[C@@]21O (stereo not given in full),-3
11,0,COc1ccc(CC(=O)OCC(=O)NC2CCCCCC2)cc1OC,3
-4,13,CN1CCN(S(=O)(=O)c2cccc(C(=O)N(C)CC(=O)Nc3ccc(Cl)c(Cl)c3)c2)CC1,-3
-12,-5,COc1cccc(COC(=O)c2cc(S(=O)(=O)N3CCOCC3)ccc2Cl)c1OC,-2
0,5,CCNC(=O)C1CCCN(C(=O)Cc2ccc3ccccc3c2)CC1 (stereo not given),4
7,-4,CCOC(=O)c1sc(NC(=O)CN2C(=O)C3CC=CCC3C2=O)nc1C (stereo not given),-2
-8,-2,O=C(COC(=O)CCNS(=O)(=O)c1ccccc1)NC(=O)Cc1ccccc1,4
-2,1,CCN(CC)C(=O)C1=C(C)N(Cc2ccc(OC)cc2)C(=O)C(CC(=O)NC2CC2)C1 (stereo not given),5
7,-1,Cc1cn([C@H]2C[C@H](O)[C@@H](CNCc3ccccc3)O2)c(=O)[nH]c1=O,9
-12,1,Cc1cn(C2CC(O)C(CO)O2)c(=O)n(Cc2ccccc2)c1=O (stereo not given),6
-5,-1,N#Cc1cccc2cccc(S(=O)(=O)N3CCOCC3)c12,5
-28,4,O=C1CC(=O)OC(c2ccc([N+](=O)[O-])cc2)O1,-13
6,8,CCCCN(C(=O)c1c(CC)noc1C)c1c(N)n(CC(C)C)c(=O)[nH]c1=O,1
-18,2,COC(=O)c1c(C)[nH]c(C(=O)COC(=O)c2c(C)noc2C)c1C,0
1,-1,CCN(C)c1cc2c(c3c1ccn3C)C1CCC2C1 (stereo not given),1
7,-5,CN(CC(=O)Nc1cccc(F)c1)C(=O)c1cccc(S(=O)(=O)N2CCN(Cc3ccccc3)CC2)c1,-25
-12,-3,Cc1ccc(S(=O)(=O)N2C[C@H]3C(=O)C[C@@H](c4ccccc4)N(S(=O)(=O)c4ccc(C)cc4)[C@H]3C[C@H]2c2cccs2)cc1,-4
16,-10,O=C(CN1CCN(S(=O)(=O)c2ccccc2)CC1)Nc1ccnn1C1CCCC1,-6
0,1,C[C@H]1NC(=O)[C@]2(C)[C@@H](c3ccccc3)[C@H]3COc4ccccc4[C@H]3N2C1=O,3
12&-9,-1,C[C@@H]1CN([C@@H](C)CO)C(=O)CCCn2nncc2CO[C@H]1CN(C)S(=O)(=O)c1ccc2c(c1)OCCCO2,3
-2,-1,CN(CC(=O)Nc1ccc(F)cc1)C(=O)c1cn(-c2ccccc2)nc1-c1cccs1,1
-4,3,CCCCCCCCCCC(C(=O)O)C1(C(=O)O)CCC(=O)O1 (stereo not given),8
-9,4,CCn1nc(C(=O)Nc2ccc(N3CCOCC3)cc2)c2ccccc2c1=O,-2
-17,-1,O=[N+]([O-])c1cccc(C=NNc2ccccc2)c1,-2

(continued)
UUG fidelity,MT1-MMP act inh,structure,MT1-MMP act inh RFP
6,-5,CC1(C(=O)NS(=O)(=O)c2ccc(Cl)cc2)CCN1C(=O)c1ccccc1CCc1ccccc1 (stereo not given),1
-8,-6,Cc1ccc(S(=O)(=O)Nc2ncnc3sc(C)c(C)c23)cc1,-22
-7,-1,Cc1ccc(NC(=O)CCN2C(=O)NC3(CCCC3)C2=O)c(C)c1,4
-15,2,CC(NC(=O)CNC(=O)c1ccccc1Br)c1cccs1 (stereo not given),0
-22,1,O=S(=O)(N[C@H](CO)Cc1ccccc1)c1ccc(Br)cc1F,3
-11,1,CC(=O)c1ccc(OCCCC(=O)OCC(=O)N2CCN(S(=O)(=O)c3ccc(C)cc3C)CC2)cc1,2
-11,-2,Fc1cccc(Cc2c(-c3cccc(Cl)c3)nc3ccc(Cl)cn23)c1,3
1,-6,CCN(C(=O)CSc1nc2ccc([N+](=O)[O-])cc2s1)c1c(N)n(Cc2ccccc2)c(=O)[nH]c1=O,-4
4,-5,CC1CC(C)CN(S(=O)(=O)c2ccc(NC(=O)CCN3C(=O)C4CC=CCC4C3=O)cc2)C1 (stereo not given),-5
-16,-13,NC(c1csc(NC(=O)Nc2ccccc2Cl)n1)C1CCCCC1 (stereo not given),-8
11,0,COc1ccc(-c2nc3ccc(Br)cn3c2Cc2cccc(F)c2)cc1OC,1
0,3,Cc1ccc2nc3n(c(=O)c2c1)-c1cc2ccccc2cc1C(=O)NC3CC(C)C (stereo not given),6
-21,4,COc1ccc(C(=O)N2CCCCC2c2cc(C(=O)NCc3cccnc3)no2)cc1 (stereo not given),1
-17,-5,O=C(NCC1CCCCC1)NCC1CCCCC1,-4
3,2,COc1ccc2c(c1)C(=O)C1NC(=O)NC(=O)C1(Br)N2 (stereo not given),1
-6,-5,CCOC(=O)C1(C)CCCN1C(=O)c1cccc2ccccc12 (stereo not given),2
-15,-3,NC(=O)CSc1ccc(S(=O)(=O)N2CCOCC2)cn1,3
-6,-13,CC(C)N(C(=O)[C@H]1C[C@H](CC(=O)NCCC2=CCCCC2)C(=O)N2CCc3c([nH]c4ccc(Cl)cc34)[C@]12C)C(C)C,-18
-9,3,CC1(C)C(=O)Nc2ccccc2N1C(=O)COC(=O)CNS(=O)(=O)c1ccc(F)c(F)c1F,-6
-15,-1,COC(=O)[C@H](C(C)C)N(Cc1ccccc1)S(=O)(=O)CCN1CCN(c2ccccc2)CC1,-14
-11,3,CC1CC(O)C2C3(C)CCCC2(COC3=O)C12CCC1(CCOC1=O)O2 (stereo not given),5
-2,6,COc1ccccc1CNc1nc(Nc2ccccc2OC)c2sccc2n1,-16
-18,-7,CCCCn1c(N)c(N(CC(C)C)C(=O)c2c(-c3ccccc3)noc2C)c(=O)[nH]c1=O,-2
-3,4,Cc1ccc(C(=O)OCC(=O)c2c(N)n(C)c(=O)n(C)c2=O)cc1S(=O)(=O)N1CCOCC1,4
-3,-1,COc1cccc(NC(=O)C2(C)CCN2C(=O)Cc2cccc3ccccc23)c1 (stereo not given),-5
4,7,Cc1cn([C@H]2C[C@H](O)[C@@H](CCC(=O)NCc3ccc4c(c3)OCO4)O2)c(=O)[nH]c1=O,9
-19,1,Cc1ccc(NC(=O)Cn2c(=O)ccn(Cc3ccccc3)c2=O)cc1S(=O)(=O)N1CCOCC1,-5
6,-1,COCC(=O)N(C)C[C@H]1N[C@@](C)(C(=O)OC)[C@H]2C(=O)N(C)C(=O)[C@@H]12,6
-10,3,O=S(=O)(Nc1ccc(-n2cnnn2)cc1)c1ccc(Cl)cc1,1
-22,2,COc1ccc(NC(=O)CCCN2C(=O)CN(C)C2=O)cc1Cl,7
-11,2,COc1ccc2[nH]c3c(c2c1)CCN1C(=O)C(CC(=O)NCc2ccc(OC)c(OC)c2)C[C@H](C(=O)N2CCOCC2)[C@@]31C (stereo not given in full),3
5,3,CCOC(=O)C1=C(COC(=O)CCCOc2ccccc2)NC(=O)NC1C (stereo not given),4
0,-5,CN(Cc1ccccc1F)C(=O)c1ccc(NC(=O)CC2SC(N3CCCCC3)=NC2=O)cc1 (stereo not given),-6
-11,4,CC(=O)c1ccc(OCC(=O)OCC(=O)NCc2ccco2)cc1,5

The list is partial, so the mix of outcomes need not match the whole.
